# StopGo FLuc: Primary qHTS Assay for Foot and Mouth Disease Virus Antivirals against NCGC Sytravon and CBC Compound Libraries: Firefly Luciferase Signal; HEK cells with a luciferase reporter of 2A StopGo recoding; Potency, µM (doses to about 57.5 µM), inactives show top-dose signal change, negative = less light; 120,000 tested, 0.23% active; active = well fitted falling curve with a large enough effect; inconclusive = small, poorly fitted or top-dose-only effect; inactive = no such curve, though single readings can be large or run the other way; also: nearly all actives have a fitted effect of over 60% in size; overnight with compound
# StopGo RLuc: Primary qHTS Assay for Foot and Mouth Disease Virus Antivirals against NCGC Sytravon and CBC Compound Libraries: Renilla Luciferase Signal. HEK cells with a luciferase reporter of 2A StopGo recoding. Potency, µM (doses to about 57.5 µM), without a hit: top-dose signal change, negative = less light. 120,000 tested, 0.32% active. AID 1745857, 2022; active means well fitted falling curve with a large enough effect; inconclusive means small, poorly fitted or top-dose-only effect; inactive means no such curve, though single readings can be large or run the other way; also: nearly all actives have a fitted effect of over 55% in size; overnight with compound
# * = called active by the depositor; ? = inconclusive; & = joins results of further samples; [ ] = another dose, or the depositor's remark. % is scaled to controls: 0 for no effect and ±100 for the full control effect; potency is read from the fitted curve at half-maximal effect. Some of the compounds tested. The share of hits here may be higher or lower than overall.
SMILES,StopGo FLuc,StopGo RLuc
O=C(CSc1nc(-c2ccccc2)cc(=O)[nH]1)Nc1oncc1-c1ccccc1,43%[activator],42%[activator]
COc1ccc2c(C)c(CC(=O)NCc3ccc(F)cc3)c(=O)oc2c1OC,26%,16%
CC(C)(C)C(=O)NCCc1nc2ccccc2n1CCCCOc1ccc(Cl)cc1,-14%,94%[activator]
COc1ccc(NC(=O)N[C@@H](CCSC)C(=O)O)cc1OC,-10%,-14%
CC(=O)Nc1ccc(C(=O)COC(=O)c2ccccc2OCc2ccc(F)cc2)cc1,-27%,-27%
COc1ccccc1N(CC(=O)NC1CCCC1)S(C)(=O)=O,-10%,8%
CN(c1ccccc1)S(=O)(=O)c1nnc(NC(=O)COc2ccccc2)s1,-11%,-9%
O=C(O)CNS(=O)(=O)c1ccccc1Br,0%,4%[1.06 µM]
CCCCCn1nc(C(=O)NCc2ccco2)c2ccccc2c1=O,0%,52%[activator]
COCCn1c(C)cc(C(=O)CSc2nc3ccc(Cl)cc3[nH]2)c1C,?,?
Cc1ccc(C(=O)/C=C/N2CCCCC2)cc1,186%[activator],1%
CSc1ccc(C(C)NC(=O)C2CC2)cc1 (centres undefined),0%,9%
CC(Sc1nc2cc(S(=O)(=O)N(C)C)ccc2o1)C(=O)NC12CC3CC(CC(C3)C1)C2 (centres undefined),6%,35%[activator]
CCn1cc(C(=O)NCCCN(C)S(C)(=O)=O)c2ccccc21,11%,0%
Cc1cccc(Nc2nc(NC3CCCC3)nc3c2cnn3-c2ccccc2)c1,-14%,-3%
O=C(CCl)NC(C(=O)O)(c1ccccc1)c1ccccc1,13%,-13%
CC(C)(C)C(=O)NC(Sc1nccc(SC(NC(=O)C(C)(C)C)C(Cl)(Cl)Cl)n1)=C(Cl)Cl (centres undefined),-3%,-25%
CCOc1ccc(Cn2c(CNS(=O)(=O)c3ccc(Cl)s3)nc3cccnc32)cc1,-2%,197%[activator]
O=C(COC(=O)c1ccc(Cl)c(S(=O)(=O)N2CCCCCC2)c1)Nc1cc(F)ccc1F,-7%,-10%
Cc1c(-c2ccccc2)c(=O)oc2c(CN3CCOCC3)c(O)ccc12,-14%,-1%
Cc1ccc(O)c(N/C=C/C(=O)C(C)(C)C)c1,32%,4%
COc1ccc(CCNCc2cccc(F)c2)cc1,49%[activator],2%
COc1cccc(N2CCN(C(=O)c3cc4c(s3)-c3c(C)cccc3OC4)CC2)c1,-11%,-9%
CCc1ccc(-c2cc(C(=O)O)c3ccccc3n2)cc1,70%[activator],?
CCOc1c(/C=C(\C#N)c2nc3ccccc3[nH]2)cccc1OC,29%,?
Nc1nn(-c2ccccc2)nc1C(=O)OCc1ccccc1Br,0%,3%
COc1cccc(-n2c(C)nc3c(cnn3-c3ccc(C)c(C)c3)c2=O)c1,145%[activator],7%
CC(C)c1ccccc1NC(=O)c1ccc2c(c1)NC(=O)CS2,-3%,0%
O=C(Nc1ccc(S(=O)(=O)N(Cc2ccccc2)c2ccccc2)cc1)c1ccccc1F,-18%,-7%
O=C(NC1CCCC1)c1cc(-c2ccc(Cl)s2)nc2ccccc12,8%,-8%
O=C(Cn1cnc(S(=O)(=O)N2CCCC2)c1)Nc1ccc(-c2ccno2)cc1,3%,6%
Cc1cccc(Cn2nc(C)n3c(cc4cc(C)ccc43)c2=O)c1,-1%,3%
Cc1cccc(NC(=O)CSc2nnc(Cc3ccccc3)n2-n2cccc2)c1C,-8%,35%[activator]
CN1C(=O)CN=C(c2ccccc2)c2cc([N+](=O)[O-])ccc21,-10%[11.5 µM],32%[activator]
Cc1ccc2oc(C(=O)Nc3sc4c(c3C(=O)NCc3ccccc3)CCCC4)cc(=O)c2c1,-9%,-10%
CCc1ccc(S(=O)(=O)c2nnn3c2nc(N(CC)Cc2ccccc2)c2cc(Cl)ccc23)cc1,5%,-4%
CC(C)CC(=O)Nc1nn2c(CC(C)C)nnc2s1,9%,-9%
Cc1ccc(-c2cnc(CCC(=O)N(CCC#N)CCC#N)o2)cc1,0%,7%
Cc1cccc(NC(=O)CSc2nc(C)c(Cc3ccccc3)c(=O)[nH]2)c1C,6%,26%
CC1Oc2ccccc2C=C1/C=C1\Oc2cc(OCC(=O)OC(C)(C)C)ccc2C1=O (centres undefined),28%,-5%

# Of the compounds above, these have two or more sulfur atoms.
SMILES,StopGo FLuc,StopGo RLuc
CN(c1ccccc1)S(=O)(=O)c1nnc(NC(=O)COc2ccccc2)s1,-11%,-9%
CC(Sc1nc2cc(S(=O)(=O)N(C)C)ccc2o1)C(=O)NC12CC3CC(CC(C3)C1)C2 (centres undefined),6%,35%[activator]
CC(C)(C)C(=O)NC(Sc1nccc(SC(NC(=O)C(C)(C)C)C(Cl)(Cl)Cl)n1)=C(Cl)Cl (centres undefined),-3%,-25%
CCOc1ccc(Cn2c(CNS(=O)(=O)c3ccc(Cl)s3)nc3cccnc32)cc1,-2%,197%[activator]

# Compound profiles, as listed above. Order of values: StopGo FLuc, StopGo RLuc
# CCOc1c(/C=C(\C#N)c2nc3ccccc3[nH]2)cccc1OC reads 29%, ?
# O=C(NC1CCCC1)c1cc(-c2ccc(Cl)s2)nc2ccccc12 reads 8%, -8%
# CCOc1ccc(Cn2c(CNS(=O)(=O)c3ccc(Cl)s3)nc3cccnc32)cc1 reads -2%, 197%[activator]

# Further records.
SMILES,StopGo FLuc,StopGo RLuc
Cc1ccc(C)c(N2CCN(Cc3nnc(-c4ccccc4)o3)CC2)c1,-7%,-8%
COc1ccc(C=O)cc1COc1ccc(-c2ccccc2)cc1,64%[activator],21%
COc1ccc(Nc2nc3ccc(Cl)cc3n3nnnc23)cc1OC,15%,-16%
CCC(CC)C(=O)Nc1cccc(-c2nc3ccccc3s2)c1,41%[activator],31%[activator]
CCc1ccc(C2=C(C)C(N3CCC(C(=O)NCc4ccccc4)CC3)=NS2(=O)=O)cc1,4%,9%
COc1cc([N+](=O)[O-])ccc1NC(=O)N1CCN(c2cc(-c3noc(C)n3)ccc2C)CC1,?,?
Cc1ccc(C)c(N2CCN(C(=O)c3cc(S(=O)(=O)N4CCCCC4)cn3C)CC2)c1,-5%,-11%
COc1ccccc1-n1cnnc1SCC(=O)NC(C)c1cccc2ccccc12 (centres undefined),-5%,18%
CCCCN(C)C(=O)c1cn(C)c2ccc(S(=O)(=O)N3CCC(C)CC3)cc2c1=O,-16%,-13%
Cc1ccc(CNC(=O)c2cccn2-c2nnc(N3CCCCC3)s2)cc1,-8%,56%[activator]
Cc1ccc(-n2cc(C(=O)Oc3cccc(C)c3)c3ccccc3c2=O)cc1,-6%,0%
CCOC(=O)c1cc2n(n1)CC(C)(C(=O)NC1CCCC1)N(c1ccc(C)c(F)c1)C2=O (centres undefined),-4%,0%
Cc1ccc(C2CC2C(=O)N(Cc2ccncc2)C2CC2)s1 (centres undefined),?,?
CCc1cccc(NC(=O)c2coc(=O)c3ccccc23)c1,66%[activator],?
CCCSc1n[nH]c2nc3c(c(=O)n12)C(C)(CC)Cc1ccccc1-3 (centres undefined),23%,28%
O=C(NCCc1ccc(F)cc1)C1CCN(c2ccc3nnc(C(F)(F)F)n3n2)CC1,7%,12%
CCN(CC)C(CNC(=O)Nc1cccc(C(=O)N2CCCCC2)c1)c1ccsc1 (centres undefined),-11%,-21%
CCN(Cc1ccccc1)S(=O)(=O)c1ccc(S(N)(=O)=O)cc1,?,9%
CC(C)CCN1CCN(c2nc3c(c(=O)[nH]c(=O)n3C)n2Cc2ccc(Cl)cc2)CC1,-10%,-3%
CCS(=O)(=O)c1nc(S(=O)(=O)c2ccc(Cl)cc2)c(NCc2ccc(Cl)cc2)s1,-17%,-7%
O=C(COc1cccc2ccccc12)Nc1nccs1,213%[activator],-5%
Fc1ccc(-c2noc3ncnc(N4CCCCC4)c23)cc1,19%,8%
Fc1cccc(-c2nc(COc3ccccc3F)co2)c1,160%[activator],10%
COc1ccc(S(=O)(=O)Nc2ccc3oc(-c4ccccc4OC)cc(=O)c3c2)cc1,12%,222%[activator]
CC(=O)c1c[nH]c(C(=O)OCc2cc(=O)oc3cc(C)ccc23)c1,6%,-2%
CCCOc1ccc(C(=O)NCC2OCCc3ccccc32)cc1 (centres undefined),149%[activator],6%
CCN(CC)c1nc2ncn(CC(=O)Nc3ccc(Br)c(C)c3)c(=O)c2s1,4%,-5%
CCCCc1nn2c(=O)cc(COC(=O)c3cccs3)nc2s1,-17%,-15%
N#Cc1nc(-c2ccco2)oc1N1CCN(C(=O)c2cccc(Cl)c2)CC1,0%,-7%
Cc1ccccc1-n1nc(CO)c(C(=O)NCC(c2ccccc2)c2ccccc2)n1,?,8.9µM*
CCOc1ccccc1NC(=O)c1nc2ccccc2nc1N1CCOCC1,-2%,6%
COc1cc(OC)cc(C(=O)Nc2ccc(S(=O)(=O)N3CCCCC3c3cccnc3)cc2)c1 (centres undefined),-15%,-9%
c1cncc(-c2nc(NCc3ccncc3)c3ccccc3n2)c1,22%,19%
CCN(CC)c1ccc(C(=O)Nc2ccc3nc(N(CC)CC)cc(C)c3c2)cc1,-2%,-2%
COc1cc(CN(CC2CCCO2)C(=O)c2ccccc2F)cc(OC)c1OC (centres undefined),-15%,-1%
COc1cc(NC(=O)N2c3ccccc3Sc3ccccc32)cc(OC)c1,-11%,-11%
Nc1nccnc1C(=O)Nc1cccc(OCc2cccnc2)c1,0%,-29%
Cc1ccc(S(=O)(=O)N2CCCCC2)cc1NC(=O)CSc1nc(Cc2ccccc2)c(C)[nH]1,-21%,-2%
COc1cccc(NC(=O)CC2NCCNC2=O)c1 (centres undefined),20%,?
CCOC(=O)c1[nH]c2ccccc2c1NC(=O)CCN1CCCC(C)C1 (centres undefined),-9%,-12%
Cc1nn2c(C(F)F)cc(-c3ccc(F)cc3)nc2c1Br,4%,-4%
CCc1nnc(NC(=O)CSc2nccn2Cc2ccc(Cl)cc2)s1,8%,10%
CCCS(=O)(=O)c1ncc(Cl)c(C(=O)Nc2c(C(=O)Nc3ccccc3)oc3ccccc23)n1,21%&49%,-1%&1%
COc1ccc(C2=CC(c3ccc(OC)cc3)n3nnnc3N2)cc1 (centres undefined),35%[activator],-13%
COc1ccc(CN(C)S(=O)(=O)c2ccc3c(c2)OCCCO3)cc1,75%[activator],65%[activator]
COc1ccc(-c2cccc(C(=O)O)c2)cc1,0%,14%
COc1ccc(NC(=O)COc2cccc(C)c2)c2cccnc12,-23%,?
CC(=O)c1cccc(NC(=O)CN2C(=O)CCc3cc(S(=O)(=O)N4CCCCC4)ccc32)c1,-10%,-6%
COC(=O)c1ccc(NC(=O)CSc2ncc3c(n2)-c2cc(Cl)ccc2N(Cc2ccccc2)S3(=O)=O)cc1,-20%,-22%
Cc1ccc(NC(=O)CN(C)S(=O)(=O)c2ccc(C(=O)N3CCOCC3)s2)cc1F,?,?
Oc1ccccc1OCCOCCOCCOc1ccccc1O,13%,10%
Cc1c(Cl)cccc1NC(=O)CN1C(=O)C(C)N=C(c2ccccc2)c2ccccc21 (centres undefined),-2%,5%
Cc1ccc(CNC(=O)C2CCCN(C(=O)c3cccc(C(F)(F)F)c3)C2)cc1 (centres undefined),?,?
Cc1ccc2c(CSc3nncs3)cc(=O)oc2c1,81%[activator],117%[activator]
CC(C)(C)c1ccc(C(=O)Nc2c(F)c(F)c(F)c(F)c2F)cc1,20%,5%
Cc1cccc(-c2noc(-c3ccc(NCC4CCCO4)c([N+](=O)[O-])c3)n2)c1 (centres undefined),-1%,-20%
CCN(C(=O)c1cc2c(s1)-c1ccccc1SC2)c1ccccc1C,13%,19%
Cc1cccc(C)c1NC(=O)N1CCN(S(C)(=O)=O)CC1,2%,-4%
CCOc1ccccc1CC1C(=O)Nc2ccc(Br)cc21 (centres undefined),-28%,23%
CCCCCCNC(=O)c1ccc(Nc2ccc(-c3ccccc3)nn2)cc1,152%[activator],0%

# Carrying on:
SMILES,StopGo FLuc,StopGo RLuc
COc1ccc2c(c1)c(C(C(=O)O)N1CCN(CCC#N)CC1)cn2CC(=O)O (centres undefined),1%,-3%
COc1ccc(CNC(=O)c2cc(-c3cccs3)nc3ccccc23)c(OC)c1,-4%,-4%
CCOC(=O)c1ccccc1NC(=O)COC(=O)CC(C)(C)CC1=NS(=O)(=O)c2ccccc2N1,?,104%[activator]
CCN(CC)C(=O)CSc1nc2sc(C)c(C)c2c(=O)[nH]1,23%,-2%
COc1ccc2c(c1)cc(C(=O)Nc1cccc(C)c1C)n2C,52%[activator],18%
Cc1ccc(CNC(=O)c2cc3cc(C)ccc3n2C)cc1,105%[activator],154%[activator]
CC(C)CNC(=O)Cn1ccc2c(Cl)cccc21,1%,-2%
CN(Cc1cccc2ccccc12)C(=O)Cc1cn(C)c2ccccc12,11%,182%[activator]
O=c1[nH]c(SCc2ccc(F)cc2)nc2c1CCCC2,7%,24%
Cc1ccc(SCCNC(=S)NC2CC2)cc1,59%[activator],3%
CCOc1ccc(NC2SC(=O)N(Cc3ccccc3)C2=O)cc1 (centres undefined),-11%,-4%
O=C(c1ccc(OCCN2CCCCC2)cc1)c1c(-c2ccc(O)cc2)sc2cc(O)ccc12,-10%,193%[activator]
CCC1CCCCN1C(=O)c1nn(-c2ccc(C)cc2)c(=O)c2c1c1ccccc1n2C (centres undefined),-9%,-11%
CCc1ccc(-c2nc(SC(C(=O)N(CC)CC)c3ccccc3)n[nH]2)cc1 (centres undefined),?,?
OCCCCSc1ccc(O)cc1,16%,5%

# Looked up by compound from the entries so far:
SMILES,StopGo FLuc,StopGo RLuc
COc1ccc2c(c1)cc(C(=O)Nc1cccc(C)c1C)n2C,52%[activator],18%
OCCCCSc1ccc(O)cc1,16%,5%
O=c1[nH]c(SCc2ccc(F)cc2)nc2c1CCCC2,7%,24%

# Screening data: PubChem BioAssay, National Center for Advancing Translational Sciences (NCATS)
